PrP 5UTR inh: suppresses PrP 5' UTR mRNA reporter expression. AID 488862. 340,000 tested, 0.35% active. cell-based PrP 5' UTR mRNA reporter, plate reader. inhibition, % (no concentration beside the values);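 active means every replicate at 50% or more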;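 further: 0 = median of the neutral control wells; tested in H4 reporter cells; numbers are from one replicate; inactives centre near -14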
Bead autofluor: counter-screen for toxin protease inhibitors: compound fluorescence; compound autofluorescence counterscreen, microsphere flow cytometry; stronger effect = higher value; fluorescence intensity (no concentration beside the values); 360,000 tested, 3.1% active;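 active means at least 3 SD above the mean of all compounds, about 16000 in these data; inconclusive means too few beads counted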;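 further: 100 nL of 1 mM stock went into each well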
RN4220 kill: S. aureus RN4220 growth inhibition | AID 1259311 | 330,000 tested, 0.33% active | OD600, 16 h | inhibition, % (test concentration not listed);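 active means z-score of -3 or lower and OD600 up to 0.18 on both plates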;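 further: plate controls were untreated cells for no effect and reference antibiotic for full effect; stock transfer was 100 nL into about 80 µL; one replicate is shown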
ugtP null kill: compounds lethal to S. aureus RN4220 ugtP deletion mutant. growth inhibition, % (no concentration beside the values). AID 1259309. 330,000 tested, 0.54% active. OD600 growth, 16 h; some inactives read as strong as hits;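 active means z-score under -3 and OD600 up to 0.15 on both plates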;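 further: plate controls were untreated wells for no effect and antibiotic for full effect; wells of about 80 µL received 100 nL stock; the first replicate is given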
BJeLR lethal: kills HRASV12-expressing BJeLR cells; BJeLR (HRASV12) viability, CellTiter-Glo ATP luminescence, 48 h; reference of the scale not given here; inhibition, % (test concentration not listed); 300,000 tested, 0.17% active; AID 1554;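 active means replicate mean above 50%; inconclusive means above 50% but judged a plate artefact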;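 further: 50 nL library stock added to about 25 µL; numbers are from one replicate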
Mtb hypoxia inh: inhibitors of hypoxia-regulated fluorescent reporter in Mycobacterium tuberculosis; M. tuberculosis hypoxia-regulated fluorescent reporter, fluorescence; fluorescence inhibition, % (concentration not given with the values); 300,000 tested, 0.1% active; AID 1159583;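 active means 35 to 45% if threefold the growth effect, above 45% if 1.5-fold the growth effect; inactive means the rest, general growth blockers included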;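 further: wells of about 50 µL received 100 nL stock; 0% = vehicle wells and 100% = reference inhibitor wells; whole bacteria with a GFP reporter of the hypoxia response; strong numbers were not always called active; many hits fall short of the cut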
Mtb hypoxia inh growth: second read-out of Mtb hypoxia inh, no call of its own (marks repeat the call); growth inhibition, %; measured here: M. tuberculosis growth (absorbance);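 0% = vehicle and 100% = reference antibiotic; read after six days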
The depositor's hits bear a star; ? = inconclusive; nt = not tested or not shown.

SMILES | PrP 5UTR inh | Bead autofluor | RN4220 kill | ugtP null kill | BJeLR lethal | Mtb hypoxia inh | Mtb hypoxia inh growth
CCOc1ccc(S(=O)(=O)N2CCC(C(=O)Nc3cccc(NC(C)=O)c3)CC2)cc1 | -3.1 | 3116 | -2.5 | 4.5 | -10.9 | 3.1 | 8.1
Cc1cccc(NC(=O)CN2C(=O)COc3ccc(Cl)cc32)c1C | -14.7 | 5394 | -0.6 | 9.2 | -1.2 | nt | nt
CC1CCCC(NC(=O)c2cc(S(=O)(=O)N3CCOCC3)ccc2F)C1C (configuration not stated) | -1.3 | 4668 | -1.5 | -4.0 | -6.3 | 2.4 | 2.9
Cc1cc(=O)[nH]c2c(C)cc(S(=O)(=O)N3CCOCC3)cc12 | -0.2 | 6577 | -0.4 | -3.3 | 7.3 | -7.1 | 7.3
Cc1ccc(NC(=O)C2CCN(S(=O)(=O)c3cccs3)CC2)cc1C | -2.9 | 2365 | 24.9 | 18.5 | 7.5 | -1.7 | 1.0
Cc1nn(-c2ccccc2)c(C)c1S(=O)(=O)O | -2.7 | 4187 | -3.0 | -1.7 | -4.0 | -5.7 | -1.5
COC(=O)c1ccc(C(=O)OC)c(NS(C)(=O)=O)c1 | -16.0 | 23033* | 3.1 | 3.7 | 5.5 | -0.2 | -1.3
O=c1cc(N2CCN(c3ccccc3)CC2)[nH]c(=O)n1C1CCCCC1 | -17.1 | 2246 | 2.0 | 5.2 | 2.9 | nt | nt
O=C(Cn1cccc1C(=O)c1ccccc1)NCc1cccc(Cl)c1 | -43.6 | 3995 | 4.4 | 16.4 | -4.6 | 7.1 | 1.1
COc1ccc(C(=O)Nc2nnc(-c3cccs3)s2)cc1 | -90.9 | 3350 | 6.2 | -26.4 | 2.7 | 4.3 | 8.1
Cc1ccc(OC(F)F)c(NC(=O)Nc2ccc3c(c2)OCO3)c1 | -21.0 | 5913 | -3.0 | 0.2 | 4.6 | 12.1 | 1.5
COc1ccc(N(CC(=O)NCc2ccco2)S(=O)(=O)c2ccc(OC)c(OC)c2)cc1 | -3.7 | 22427* | 5.4 | -0.3 | -6.0 | 14.0 | 8.3
Cc1ccccc1NS(=O)(=O)c1ccc(C2CNC(=O)C2)cc1 (configuration not stated) | -17.0 | 9836 | 9.2 | 6.6 | -7.2 | 5.6 | -1.8
N#Cc1cccc(NS(=O)(=O)c2ccc(S(=O)(=O)N3CCOCC3)cc2)c1 | -13.2 | 8218 | 2.9 | 4.9 | nt | 2.2 | 6.5
COc1ccc(NC(C)=O)cc1C | -8.8 | 2565 | 0.3 | 0.7 | 0.8 | 5.3 | 10.1
CCC(CC)N=C1NS(=O)(=O)c2cc([N+](=O)[O-])ccc21 | -38.1 | 4823 | 37.1 | 15.0 | -1.8 | -24.9 | -6.2
COc1cccc(/C=N/NC(=O)c2nc(-c3ccccc3)cc(-c3ccccc3)n2)c1 | -27.2 | 4883 | nt | nt | -4.0 | nt | nt
O=C(N/C(=C/c1ccco1)C(=O)N1CCOCC1)c1ccccc1Br | -6.8 | 6850 | 2.0 | 1.0 | -1.2 | -1.7 | -4.9
O=C(O)c1ccc(-n2c(/C=C/c3cccc([N+](=O)[O-])c3)nc3ccccc3c2=O)cc1 | -14.5 | 3301 | 9.4 | 5.2 | 1.4 | 5.2 | -2.3
O=C(Cc1ccccn1)c1ccc(Cl)cc1 | -62.4 | 3846 | nt | nt | 7.3 | nt | nt
CCOc1ccc(C(NC(=O)/C=C/c2ccco2)c2ccc(OC)c(OC)c2)cc1 (configuration not stated) | -7.3 | 10371 | -3.4 | 11.5 | -16.4 | 5.2 | 1.5
O=C(COC(=O)c1ccccc1C(=O)OCC(=O)NCCc1c[nH]c2ccccc12)NCCc1c[nH]c2ccccc12 | -29.8 | 3103 | 1.7 | -25.9 | 6.1 | -4.7 | -1.4
C=CCn1c(O)c(N=NC(=S)Nc2ccc(OC)c(Cl)c2)c2ccccc21 | 30.5 | 8602 | 7.7 | -17.8 | 20.7 | -3.0 | 1.5
CCC(CO)NCc1ccc(OC2CCCC2)cc1 (configuration not stated) | -21.5 | 23277* | 1.4 | 2.4 | 5.1 | -1.8 | 5.6
O=C(c1ccsc1)N1CCCC(N2CCN(c3ccccc3F)CC2)C1 (configuration not stated) | -11.5 | 4907 | 1.3 | 3.9 | -1.8 | 5.4 | 3.9

4 entries picked at random from the list so far:
SMILES | PrP 5UTR inh | Bead autofluor | RN4220 kill | ugtP null kill | BJeLR lethal | Mtb hypoxia inh | Mtb hypoxia inh growth
COc1ccc(NC(C)=O)cc1C | -8.8 | 2565 | 0.3 | 0.7 | 0.8 | 5.3 | 10.1
Cc1cc(=O)[nH]c2c(C)cc(S(=O)(=O)N3CCOCC3)cc12 | -0.2 | 6577 | -0.4 | -3.3 | 7.3 | -7.1 | 7.3
COc1ccc(C(=O)Nc2nnc(-c3cccs3)s2)cc1 | -90.9 | 3350 | 6.2 | -26.4 | 2.7 | 4.3 | 8.1
Cc1ccccc1NS(=O)(=O)c1ccc(C2CNC(=O)C2)cc1 (configuration not stated) | -17.0 | 9836 | 9.2 | 6.6 | -7.2 | 5.6 | -1.8

(more compounds)
SMILES | PrP 5UTR inh | Bead autofluor | RN4220 kill | ugtP null kill | BJeLR lethal | Mtb hypoxia inh | Mtb hypoxia inh growth
CCOC(=O)CSc1nc(C2CC2)cc(-c2ccc(Cl)cc2)c1C#N | -24.4 | 2496 | 15.2 | 68.0 | 2.1 | 9.5 | 10.9
COc1ccc(C)cc1S(=O)(=O)Nc1cccnc1 | -29.0 | 9913 | 12.0 | -8.2 | 3.6 | 6.5 | 5.5
CC1CN(CCCCN2C(=O)c3ccccc3C2=O)CC(C)O1 (configuration not stated) | -36.1 | 5401 | 0.7 | -1.1 | -5.5 | 4.0 | 1.5
Cc1cc(C)cc(C(=O)NC(=S)Nc2ccc(Cc3ccncc3)cc2)c1 | -18.5 | 2560 | 1.7 | 86.7* | 3.4 | 5.2 | 11.6
COc1ccc(C)cc1NC(=O)N1CCC2(CC1)OCCO2 | -8.8 | 2606 | 0.9 | 3.1 | -1.3 | 7.1 | 8.2
CCn1nc(C(=O)NNC(=O)COc2ccccc2C)c2ccccc2c1=O | -5.4 | 2158 | 4.8 | 10.9 | 10.5 | -1.0 | 2.4
O=c1[nH]nc(Cc2ccccc2)c2ccccc12 | -15.8 | 3924 | 3.0 | -1.0 | -7.2 | 18.5 | 16.2
Cc1cccc(N2CC(C(=O)Nc3ccc(S(=O)(=O)Nc4nccs4)cc3)CC2=O)c1C (configuration not stated) | -13.1 | 3440 | 1.4 | 2.0 | 1.6 | nt | nt
COc1cc(C(C)=NNC(=O)c2nnn(-c3nonc3N)c2-c2cccs2)ccc1O | nt | nt | 0.1 | -0.2 | nt | -3.1 | -4.6
CC1=CC(C)C(C=NN=C(N)N)C(C)C1 (configuration not stated) | nt | nt | -7.6 | -3.8 | nt | 11.3 | 10.4
N#C/C(=C\c1ccc(OCc2ccccc2)cc1)C(=O)Nc1ccc(C(=O)O)cc1 | nt | nt | 2.1 | 1.7 | 3.1 | 12.1 | 4.1
Cc1c(N2C(=O)CSC2c2ccco2)c(=O)n(-c2ccccc2)n1C (configuration not stated) | -6.6 | 5832 | 4.4 | 21.1 | 1.5 | 18.2 | -6.0
CC(=O)N1CCOc2ccc(S(=O)(=O)Nc3ccc(C)cn3)cc21 | -24.4 | 4138 | 7.1 | 18.5 | -2.0 | -7.2 | -13.4
COc1ccc(S(=O)(=O)N2CCCCCC2)cc1C(=O)N1CCN(c2ccc(F)cc2)CC1 | -9.3 | 3230 | 2.8 | 5.4 | nt | 8.2 | 10.4
C[C@H](NC(=O)Nc1cccc(Br)c1)C(=O)O | -59.1 | 4340 | 0.9 | 3.1 | 13.2 | 4.2 | 1.6
Cc1[nH]c(C)c2c(=O)[nH]ncc12 | -14.4 | 6904 | 4.1 | 4.4 | 9.9 | 7.4 | 10.2
COCCN1C(=O)C(=O)/C(=C(/O)c2cccc(OC)c2)C1c1ccc(C)o1 (configuration not stated) | -15.3 | 3449 | 6.0 | 19.3 | 1.6 | nt | nt
Cc1ccc(C(=O)Nc2cccc(NC(=O)c3cccs3)c2)c(C)c1 | -16.0 | 4389 | 3.9 | -0.6 | -1.2 | 13.0 | 10.0
Cc1ccc(CNC(=O)C2CC(c3ccccc3[N+](=O)[O-])=NO2)cc1 (configuration not stated) | -11.8 | 4294 | 3.9 | 1.8 | 5.0 | 3.5 | -2.9
COC(=O)C(Cc1ccccc1)NCC(=O)Nc1cccc(Cl)c1C (configuration not stated) | -26.0 | 3860 | 3.0 | -2.6 | 1.1 | 2.2 | 3.2
COc1ccc(C(CNC(=O)C(CCSC)NC(=O)c2ccccc2Cl)N2CCCCC2)cc1 (configuration not stated) | 71.6* | 3610 | 6.3 | 5.6 | nt | 11.1 | 10.4
O=C(NCc1ccc2c(c1)OCO2)c1ccc(NC(=O)C2CCCO2)cc1 (configuration not stated) | -9.4 | 10077 | -0.6 | -5.8 | -0.7 | 0.2 | 8.7
O=C(CN1C(=O)NC2(CCOc3ccccc32)C1=O)c1ccc(F)c(F)c1 (configuration not stated) | -16.0 | ? | 0.0 | -4.0 | 6.1 | -3.9 | -6.4
O=C(CCNC(=O)c1ccc(Br)cc1)NC1CCCCCC1 | -5.1 | 2963 | 5.4 | 11.9 | nt | 1.3 | 0.6
COC(=O)C1=C(c2ccc(Cl)c(C(F)(F)F)c2)C[C@@H]2CC[C@H]1N2C(=O)NCCCOC(C)C | -12.6 | 3205 | -13.5 | -5.3 | nt | 5.6 | 0.5

Continuation.
SMILES | PrP 5UTR inh | Bead autofluor | RN4220 kill | ugtP null kill | BJeLR lethal | Mtb hypoxia inh | Mtb hypoxia inh growth
O=C(CN1C(=O)NC2(CCCC2)C1=O)NNC(=O)c1ccccc1 | -23.4 | ? | 1.8 | 8.1 | -0.5 | -2.4 | 7.4
CCCCn1c(/N=C/c2c[nH]c3ccccc23)nc2ccccc21 | -43.7 | 6087 | nt | nt | 0.3 | nt | nt
COc1ccccc1Oc1ccccc1C(=O)O | -19.3 | 16152* | 10.0 | 17.5 | 1.2 | 6.6 | 4.3
O=C1C2C(c3ccc(Cl)cc3)N3C(=O)N(c4cccc(Cl)c4)C(=O)[C@@]3(Cc3ccccc3)C2C(=O)N1C1CCCCC1 (some centres not stated) | nt | nt | 0.3 | -23.0 | nt | 6.0 | 7.6
O=C(C[n+]1ccccc1)N/N=C/c1ccccc1[N+](=O)[O-] | -11.6 | 3512 | nt | nt | 6.8 | nt | nt
CN(CCCNC(=O)C1CCN(S(=O)(=O)c2cccc3nsnc23)CC1)Cc1ccccc1 | -0.9 | 4671 | -4.7 | 2.9 | 11.6 | nt | nt
Cc1occc1C(=O)Nc1cc(S(=O)(=O)N2CCOCC2)ccc1OC(C)C | -35.8 | 2996 | 3.6 | -0.3 | nt | -3.6 | -4.0
CCCCN(C)C(=O)c1nc2ccccn2c1CN1CCN(C(=O)c2cccs2)CC1 | -13.3 | 2238 | 7.2 | 8.9 | -0.6 | 4.1 | -4.2
CCOC(=O)N1CCN(Cc2nc3ccc([N+](=O)[O-])cc3c(=O)n2-c2ccc(OC)cc2OC)CC1 | 47.9 | 3692 | 1.2 | 9.5 | -1.6 | 12.7 | 8.0
O=C(CC1SC(N2CCCCC2)=NC1=O)Nc1cccc(C(F)(F)F)c1 (configuration not stated) | -2.5 | 3620 | 3.2 | 8.8 | 0.5 | 9.6 | 2.1
COc1ccc(CC(=O)NCC(=O)N/N=C/c2c[nH]c3ccccc23)cc1 | -15.5 | 6109 | nt | nt | -7.0 | nt | nt
CC(=C\c1ccco1)/C=C(\C#N)C(=O)NCCc1c[nH]c2ccccc12 | -5.7 | 2197 | 20.9 | -12.3 | -2.1 | 0.8 | -7.2
CSCC[C@H](NC(=O)[C@H](Cc1ccccc1)n1c(=O)[nH]c2ccccc2c1=O)C(=O)N1CCC[C@H]1C(=O)O | -9.1 | 5480 | 8.7 | -7.3 | 0.3 | nt | nt
COc1ccc(C(C)=O)cc1CC(=O)NCCCn1ccnc1 | -6.7 | 5753 | 3.8 | -7.2 | -8.7 | 15.6 | 1.6
CC[C@@H]1[C@H]2CCCC(=O)N3CC[C@@H](C[C@H]1O)[C@@H]23 | 6.0 | 3595 | nt | nt | 3.3 | nt | nt
NNc1nc(-c2ccccc2)nc2sc3c(c12)CCCC3 | 5.9 | 2415 | 3.9 | 10.8 | -3.8 | 7.8 | 3.0
COc1ccc(CCn2c(O)c(C3=c4ccccc4=NC3=O)sc2=S)cc1OC | 1.4 | 3510 | 2.4 | 8.3 | -0.3 | -1.0 | -0.5

Compound activity (PubChem BioAssay)
